GLA inh pH 4.5: blocks human alpha-galactosidase A at pH 4.5. activity change, negative = inhibition, % at 105 µM. 230,000 tested, under 10 active. P06280. purified enzyme, 4-MU-alpha-Gal fluorescence, pH 4.5; inconclusive = small, poorly fitted or top-dose-only inhibition, or a rising curve; inactive = flat fitted curve, though single readings scatter; no compound was filed as active;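 further: 0% = full activity with enzyme and -100% = basal without enzyme; dose as in the result columns while the protocol names 77 µM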
Target sequence (P06280 whole entry, looked up): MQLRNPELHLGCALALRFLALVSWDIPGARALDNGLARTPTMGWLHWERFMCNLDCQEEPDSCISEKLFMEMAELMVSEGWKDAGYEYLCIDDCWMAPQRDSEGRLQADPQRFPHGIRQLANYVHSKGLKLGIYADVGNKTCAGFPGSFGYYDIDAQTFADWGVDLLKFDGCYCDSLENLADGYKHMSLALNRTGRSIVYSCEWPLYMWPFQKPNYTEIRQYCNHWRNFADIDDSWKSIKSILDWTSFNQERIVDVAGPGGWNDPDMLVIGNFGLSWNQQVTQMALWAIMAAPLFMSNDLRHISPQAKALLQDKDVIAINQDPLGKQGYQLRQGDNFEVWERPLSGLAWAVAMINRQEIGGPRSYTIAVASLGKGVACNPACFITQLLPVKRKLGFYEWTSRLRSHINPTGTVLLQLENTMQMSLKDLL
Rango complex inh: Rango-importin beta binding inhibition. Q14974. Rango CFP/YFP FRET sensor + importin beta, 45 min. Potency, µM (doses to about 92.2 µM), inactives show at the highest dose inhibition of complex formation. hit rate 0.031% among 340,000. AID 540263; active = rising FRET ratio curve, often small or poorly fitted; inconclusive = mostly compound fluorescence or quenching in the first reads; inactive = flat curves in all reads;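 further: potency means the concentration at half of the fitted maximal effect; 0% = DMSO wells and 100% = buffer wells lacking importin beta; nearly all actives have a fitted effect of over 15% in size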
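FRET biosensor Rango (snurportin 1 IBB between N-terminal EYFP and C-terminal Cerulean), 50 nM in PBS/1 mM DTT/0.02% Tween-20/0.1% BSA, preincubated 5 min RT with compound; 0.125 microM importin beta added, 45 min RT, CFP/YFP FRET ratio read.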
Rango dissoc inh: inhibitors of RanGTP-induced Rango-importin beta complex dissociation | O95149+P62826 | Biochemical FRET Rango-importin beta, RanGTP-induced dissociation | Potency, µM (highest dose often 46.1 µM), for inactives: at the top dose activity change, negative = inhibition | hit rate 0.071% among 340,000; active means falling FRET ratio curve, often poorly fitted, with flat reads before Ran was added; inconclusive means other falling curves, or compound fluorescence or quenching; inactive means flat or rising ratio curve;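 further: potency means the concentration at half of the fitted maximal effect; % of control where 0% means no effect; nearly all actives have a fitted effect of over 45% in size; -100% = wells without RanGTP and RCC1; the record marks most hits as doubtful in a second field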
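Rango FRET biosensor (snurportin-1 IBB flanked by N-terminal EYFP and C-terminal CFP10) at 0.1 uM, with 0.25 uM importin beta in PBS, 1mM DTT, 0.02% Tween-20, 0.1% BSA. 0.6 uM Ran, 2mM GTP and 0.2 uM RCC1 were then added for 45 min at room temperature. Inhibition read as loss of FRET rise.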
miR-21 reporter: miR-21 reporter, rising signal | HeLa miR-21 FLuc reporter, luciferase, 48 h | Potency, µM (titrated, usually from 38.3 µM), inactives show top-dose reporter change, positive = more light | 340,000 tested, under 10 active; active = well fitted rising curve with a large enough effect; inconclusive = small, poorly fitted or top-dose-only effect; inactive = no such curve, though single readings can be large or run the other way;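 further: % of control where 0% means no effect; miR-21 action dims this reporter so a rising signal means less miR-21 action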
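HeLa miR-21-FLuc reporter line, endogenous miR-21; 2000 cells/well in DMEM/10% FBS; compound titration up to ~40uM final, 48 h, 37 degree Celsius; luciferase detection reagent, 15 min lysis, CCD luminescence.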
Starred values were filed as active, the others as inactive; u = inconclusive; x = not tested or not shown; & = joins results of further samples. Some of the compounds tested, so the mix of outcomes need not match the whole.

Sequence of screens: GLA inh pH 4.5, Rango complex inh, Rango dissoc inh, miR-21 reporter
COc1cccc(N/C(SC)=C(/C#N)C(N)=O)c1
  -3, -1.6%, 8%, 17%
CC(C)(C)c1ccc(NC(=O)CN2C(=O)NC(C)(C3CC3)C2=O)cc1 (stereo not given)
  x, 0.0%, -21%, x
CC(C)c1ccc(NC2CCCN(C(=O)c3ccc4nccnc4c3)C2)cc1 (stereo not given)
  x, -0.3%, 5%, -9%
Cc1cc(C)n(C(=O)c2sc3cc(F)ccc3c2Cl)n1
  -3, x, x, 0%
O=c1nc(N2CCCC2)nc(N2CCCC2)[nH]1
  x, 1.4%, -1%, 1%
Cc1ncc(CN2CCN(CCC(C)C)C(CCO)C2)s1 (stereo not given)
  -1, -1.0%, 13%, -1%
CCOC(=O)c1c(NC(=O)COC(=O)CCCOc2ccc(OC)cc2)sc(C(=O)NC)c1C
  x, 0.0%, -8%, x
CC(C)c1ccc2oc(=O)cc(CN3CCN(c4ccc(F)cc4)CC3)c2c1
  -3, -0.5%, 3%, -2%
O=C(CCCn1c(SCC(=O)NCC2CCCO2)nc2ccccc2c1=O)NCC1CCCO1 (stereo not given)
  6, -3.3%, 17%, -4%
Cc1ccc(C(=O)N/N=C\c2ccc([N+](=O)[O-])s2)cn1
  -2, -2.2%, 1%, u
COc1ccc(OCCSc2ncnc3nc[nH]c23)cc1
  -1, -3.2%, 4%, -26%
Cc1ccc(/C=C/C(=O)c2ccc(C)cc2)cc1
  -8, 0.9%, 8%, -18%
CN(C=O)c1cc([N+](=O)[O-])ccc1OCc1ccccc1
  x, -0.1%, 10%, x
CCN(CC)S(=O)(=O)c1ccc(C)c(NC(=O)CN2CCN(C)CC2)c1
  -3, 3.0%, 19%, -2%
CN(C)Cc1ccccc1C(O)(c1ccccc1)c1ccccc1
  x, -3.9%, 33%, 4%

Reprinted at random: two entries already listed, in no set order.
Sequence of screens: GLA inh pH 4.5, Rango complex inh, Rango dissoc inh, miR-21 reporter
CCN(CC)S(=O)(=O)c1ccc(C)c(NC(=O)CN2CCN(C)CC2)c1
  -3, 3.0%, 19%, -2%
COc1cccc(N/C(SC)=C(/C#N)C(N)=O)c1
  -3, -1.6%, 8%, 17%

(list continues)
Sequence of screens: GLA inh pH 4.5, Rango complex inh, Rango dissoc inh, miR-21 reporter
Cc1ccn(CCC(=O)N2CCCC(CCC(=O)NCc3ccc(F)c(F)c3)C2)n1 (stereo not given)
  5, -2.8%, -12%, 2%
NS(=O)(=O)c1ccc(NC(=O)c2ccc(OCC3CCCO3)cc2)cc1 (stereo not given)
  x, -0.8%, -12%, x
Cc1ccc(NC(=O)CSc2nnc(Cc3ccccc3)o2)cc1
  -11, -3.7%, -15%, -15%
Cc1ccc(Cl)cc1NC(=O)CON=C(N)c1ccccc1
  x, -0.4%, 2%, x
Cc1cccc(C)c1NC(=O)Cn1nnnc1N
  14, 0.4%, 8%, -2%
Cc1cccc(OCC(=O)Nc2cccc(C(=O)NCC(C)C)c2)c1
  -14, -5.3%, -10%, 2%
N=c1c(C(=O)NCc2ccc(F)cc2)cc2c(=O)n3ccccc3nc2n1Cc1ccco1
  0, u, u, -18%
Cc1cccc2c(N=Nc3ccc(S(=O)(=O)Nc4cccc(Cl)c4)cc3[N+](=O)[O-])c(O)[nH]c12
  -1, -4.2%, 5%, -14%
CCC1S/C(=N/N=C/c2ccco2)N(c2ccc(F)cc2)C1=O (stereo not given)
  -4, -1.0%, 6%, -2%
Cc1nn(C)cc1S(=O)(=O)N1CCN(c2ccccc2)CC1
  x, -1.1%, -8%, -6%
CCN(CCNC(=O)C1CCCN(Cc2nc(-c3ccc(OC)cc3)oc2C)C1)c1ccccc1 (stereo not given)
  -10, -0.6%, -11%, u
O=C(NCc1cccs1)c1ccc([N+](=O)[O-])cc1Cl
  -16, -1.0%, -9%, -26%
Cc1sc2nc(CN3CCN(S(=O)(=O)c4cccc5nonc45)CC3)[nH]c(=O)c2c1C
  -5, -0.6%, -3%, -1%
C[C@]1(OC(=O)/C=C/c2ccccc2)C[C@@H](O)[C@]2(O)C=CO[C@@H](O[C@@H]3O[C@H](CO)[C@@H](O)[C@H](O)[C@H]3O)[C@@H]21
  x, -2.2%, 5%, x
O=C(COC(=O)c1cccc(Oc2ccccc2)c1)NCc1ccco1
  3, 4.6%, -12%, -8%
Cc1ccc(Nc2nnc(SCC(=O)Nc3ncc(C(F)(F)F)cc3Cl)s2)cc1
  19, -6.0%, -3%, -4%
CCOC(=O)C1=C(COC(=O)Cc2ccc(Cl)cc2)NC(=O)NC1C (stereo not given)
  x, 6.5%, -9%, x
CN(CC(=O)NCc1ccc(F)cc1)S(=O)(=O)c1ccc2c(c1)n(C)c(=O)c(=O)n2C
  x, -1.3%, 14%, -2%
O=C(CCC(=O)c1cccs1)NCc1cccnc1
  4, 1.1%, -10%, -1%
CC(C)[C@H](NC(=O)[C@@H]1CSC2c3ccccc3C(=O)N21)C(=O)NC1CCCCC1 (stereo not given in full)
  x, 0.9%, 0%, 3%
CCOc1cccc(C(=O)NC(=S)NCc2cccnc2)c1
  8, 4.2%, 45%, -12%
Cn1c(SCc2ccccc2F)nnc1-c1cnccn1
  1, 0.2%, -3%, -40%
CC(=O)Nc1cccc(Oc2cc(C#N)c(C#N)cc2N2CCOCC2)c1
  -5, -2.9%, 12%, -5%
CCOC(=O)N1CCN(Cc2nc3cc(NC(=O)CC)ccc3n2C)CC1
  x, u, 3%, 0%
O=c1cc2c(nn1Cc1ccc(Cl)cc1Cl)-c1ccccc1CC2
  -2, -3.8%, 2%, -5%
O=C(C(=C1NCCN1)n1cncn1)c1ccccc1
  -1, -0.2%, -4%, -5%
O=C(NCc1ccc(F)cc1)C1(S(=O)(=O)c2ccc(Cl)cc2)CC1
  x, 0.1%, 0%, -2%
c1ccc(NNC2=NCCS2)cc1
  x, -0.4%, -4%, -7%
COc1ccc(CCN2C(=O)CC(N3CCN(S(=O)(=O)c4ccccc4)CC3)C2=O)cc1OC (stereo not given)
  1, -1.0%, -4%, 0%
CC1CCN(C(=O)C2CCN(C(=O)c3ccc(C(C)(C)C)cc3)CC2)CC1
  x, 1.6%, 1%, -1%

Going on with the list.
Compound | GLA inh pH 4.5 | Rango complex inh | Rango dissoc inh | miR-21 reporter
O=C(CSc1ccccc1Cl)N1CCC(c2nc3ccccc3s2)CC1 | -11 | -1.3% | 26% | 4%
COc1ccc(/C=C(\C#N)c2n[nH]c(Cn3cncn3)n2)cc1 | 9 | 0.6% | 9% | -4%
CCc1noc(C)c1C(=O)N(C)CC(=O)Nc1ccc(OC)cc1 | x | -1.9% | 12% | x
Cc1ccc2nc(N3C(=O)C(O)=C(C(=O)c4ccco4)C3c3ccc(C)o3)sc2c1 (stereo not given) | x | u | -19% | -57%
Cc1[nH]n(-c2ccccc2)c(=O)c1C=Nc1cccc2cccnc12 | -7 | u | -6% | 24%
O=C(CNC(=O)c1ccc(F)cc1)N/N=C/c1cn[nH]c1-c1ccccc1 | -15 | 4.9% | -9% | -2%
COc1ccc(OC)c(NC(=O)c2ccc3nc(-c4ccccc4)c(-c4ccccc4)nc3c2)c1 | 0 | x | x | -7%
COc1ccccc1N1CCN(C(=O)COc2ccc(Cl)cc2)CC1 | 9 | 13% | 19% | -9%
CCOC(=O)c1sc(NC(=O)c2c(OC)cccc2OC)nc1C | -3 | 0.3% | 3% | -3%
CCCCn1c(N2CCC(Cc3ccccc3)CC2)nc2c1c(=O)[nH]c(=O)n2C | u | -0.1% | 4% | 0%
CC(C)C(O)(C#CCN1CCCCC1)c1ccccc1 (stereo not given) | 0 | 1.7% | -4% | 1%
Cc1ccccc1CN1CCN(CC(=O)NCCCN2CCN(c3ccc(F)cc3)CC2)C1=O | -21 | 0.3% | 23% | 12%
COc1cc(C(=O)OCc2cccc(S(=O)(=O)N3CCOCC3)c2)ccc1OCC(C)C | x | 1.1% | 6% | x
O=C(O)COc1ccccc1/C=C1\SC(=O)N(Cc2ccc(F)cc2)C1=O | -6 | -0.8% | 0% | -4%
CCCNC(=O)c1ccccc1NC(=O)c1ccc(CSc2ccccc2)cc1 | -11 | -0.1% | 6% | -24%
O=C1CC(=O)Nc2cc(S(=O)(=O)Nc3ccc(Cl)c(C(F)(F)F)c3)ccc2N1 | x | -1.0% | 12% | -14%
C=CCc1ccc(OCCCOc2ccc(C)cc2OC)c(OC)c1 | -2 | 4.0% | -8% | 0%
O=C(Nc1cccc(S(=O)(=O)N2CCOCC2)c1)c1cc(=O)[nH]c2ccccc12 | x | 3.9% | u | x
O=C(NC(c1ccccc1)C(Cl)Cl)c1ccccc1 (stereo not given) | -1 | -0.8% | -9% | -3%
C=CCSc1nc(C)c(CC=C)c(=O)[nH]1 | 6 | u | 14% | -1%
CCCCc1cc(=O)oc2cc(OCC(=O)NCCN3CCOCC3)c(Cl)cc12 | x | 2.6% | -4% | -4%
CC(=O)N/C(=C\c1ccccc1)C(=O)NCc1ccc2c(c1)OCO2 | 4 | -0.4% | -8% | 0%
Cc1ccc(-n2c(C)nc3ncnc(-c4ccccc4)c32)cc1 | -11 | 3.8% | 11% | -16%
COc1ccc(S(=O)(=O)N(CC(=O)NC2CC2)c2ccc(C)cc2)cc1OC | -13 | -2.5% | u | -3%
O=C(CNC(=O)c1cccc(Br)c1)NCCc1nc2ccccc2[nH]1 | 3 | 1.6% | -4% | 10%
COc1ccc(OC)c(/C=N/Nc2nncn2/N=C/c2cc(OC)ccc2OC)c1 | -13 | -1.4% | -1% | 12%
N#C/C(=C(/O)COC(=O)CCC1CCCCC1)c1nc2ccccc2[nH]1 | 2 | u | -15% | 2%
COCC(=O)Oc1c(S(=O)(=O)c2ccc(C)cc2)c(C)nn1C(C)(C)C | x | -5.8% | -16% | 0%
COCCCNc1c2c(nc3nnnn13)CCCC2 | 6 | -5.2% | 11% | -5%
CCCOc1ccc(C2C(C(=O)c3ccc(C)o3)=C(O)C(=O)N2CCCn2ccnc2)cc1 (stereo not given) | x | -1.8% | 1% | x

One compound at a time (already shown).
COc1ccc(OC)c(/C=N/Nc2nncn2/N=C/c2cc(OC)ccc2OC)c1 in the list: GLA inh pH 4.5: -13; Rango complex inh: -1.4%; Rango dissoc inh: -1%; miR-21 reporter: 12%
COCC(=O)Oc1c(S(=O)(=O)c2ccc(C)cc2)c(C)nn1C(C)(C)C in the list: GLA inh pH 4.5: x; Rango complex inh: -5.8%; Rango dissoc inh: -16%; miR-21 reporter: 0%
COc1ccccc1N1CCN(C(=O)COc2ccc(Cl)cc2)CC1 in the list: GLA inh pH 4.5: 9; Rango complex inh: 13%; Rango dissoc inh: 19%; miR-21 reporter: -9%

Next part
Compound | GLA inh pH 4.5 | Rango complex inh | Rango dissoc inh | miR-21 reporter
O=C(CN1C(=O)c2ccccc2S1(=O)=O)Nc1ccon1 | x | 5.8% | 14% | x
COc1ccc(-c2cc(OC)c3c(C)oc(C)c3c(=O)c2)cc1OC | -6 | u | u | -20%
O=C(COC(=O)c1ccc2[nH]c3c(c2c1)CCCC3)Nc1ccccc1Cl | 8 | -1.3% | 14% | 1%
COC(=O)c1[nH]c2ccc(F)cc2c1NC(=O)C1=COCCO1 | 2 | 1.2% | 8% | 4%
CCOc1ccccc1N1CCN(c2nc(N)c(C#N)c(CC#N)c2C#N)CC1 | -17 | u | u | -12%
OC(CCN1CCCC1)(c1ccccc1)C1CCCCC1 (stereo not given) | -7&1 | -2.8% | 0% | -11%
O=C(Cn1nnc(-c2ccccc2)n1)NCc1ccccc1 | -1 | 4.8% | -4% | 0%
COc1ccc(OC)c(NC(=O)C2CC(=O)N(CCc3ccc(F)cc3)C2)c1 (stereo not given) | x | 0.0% | 3% | x
COc1ccc(Nc2nnc(-c3ccccc3)c3ccccc23)cc1C(=O)N1CCCCC1 | -2 | -4.8% | 0% | 15%
CN1C(C(=O)NCc2ccc(OC(F)(F)F)cc2)CC2Cn3c(nc4ccccc43)C21 (stereo not given) | 5 | -1.0% | -6% | -1%
